Assay outcomes: PubChem BioAssay, several laboratories
Mtb betalactam – beta-lactam sensitization of Mtb H37Rv, H37Rv. M. tuberculosis H37Rv growth with meropenem, percent inhibition; hits of this screen are not shown here. inhibition, % at 25 µM. 330,000 tested, 0.27% active. AID 434955, 2010;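 active = about 74% or more and at least 40 points above the plate without the antibiotic, then above 30% in a dose series; inconclusive = first-round hits that could not be retested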;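 also: growth measured after seven days incubation then overnight dye step; 0% = bacteria only wells and 100% = bacteria with antibiotic; twin plates without the antibiotic show which effects depend on it; some results filed as inactive read as strong as hits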
Arbovirus anti – antivirals against arbovirus infection, primary screen, cell-based, full library, 10K replicate subset; arbovirus infection cell-based antiviral screen; inhibition, % at 10 µM; 200,000 tested, 0.37% active;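 active = inhibition from about 30%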;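 also: bluetongue infection of BSR cells; cell survival read as ATP light after 72 h; 0% = infected wells without compound and 100% = uninfected wells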
YopH PTP inh – YopH tyrosine phosphatase inhibitors, primary screen, biochemical, fluorescence Ex485/Em525; 140,000 tested, 0.16% active; inhibition, %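 (about 10 µM by stock and volumes)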; YopH tyrosine phosphatase [Yersinia enterocolitica]; AID 898, 2007;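 active = inhibition of 50% or more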;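 also: controls were vehicle for no effect and minimum signal wells for full effect; inactives centre near -20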
Mtb growth – M. tuberculosis H37Rv growth inhibitors, H37Rv strain (AID 1626) | one-dose inhibition, % at 10 µM; IC50 in µM for titrated hits | M. tuberculosis H37Rv growth inhibition; higher % means a stronger effect | 220,000 tested, 0.95% active;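 active = confirmed in a dose series; inconclusive = inhibition above 80% but not taken into the dose series; inactive = below 80% or under 30% at every dose of the series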;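 also: bacteria incubated seven days before Alamar blue readout; 0% = bacteria only wells and 100% = bacteria with antibiotic wells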
RecA splice inh – Mtb RecA intein splicing inhibitors, primary screen, biochemical, fluorescence, HTS. cell-free RecA intein splicing. Protein RecA (Mycobacterium tuberculosis (strain ATCC 25618 / H37Rv)), P9WHJ3. 290,000 tested, 0.75% active. inhibition, %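 (about 9 µM by stock and volumes)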; in the data active = inhibition above about 30%; inconclusive = no clear call, values can overlap the other calls;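 also: 0% = vehicle wells and 100% = reference inhibitor control wells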
Target sequence (P9WHJ3 whole entry, looked up, canonical isoform): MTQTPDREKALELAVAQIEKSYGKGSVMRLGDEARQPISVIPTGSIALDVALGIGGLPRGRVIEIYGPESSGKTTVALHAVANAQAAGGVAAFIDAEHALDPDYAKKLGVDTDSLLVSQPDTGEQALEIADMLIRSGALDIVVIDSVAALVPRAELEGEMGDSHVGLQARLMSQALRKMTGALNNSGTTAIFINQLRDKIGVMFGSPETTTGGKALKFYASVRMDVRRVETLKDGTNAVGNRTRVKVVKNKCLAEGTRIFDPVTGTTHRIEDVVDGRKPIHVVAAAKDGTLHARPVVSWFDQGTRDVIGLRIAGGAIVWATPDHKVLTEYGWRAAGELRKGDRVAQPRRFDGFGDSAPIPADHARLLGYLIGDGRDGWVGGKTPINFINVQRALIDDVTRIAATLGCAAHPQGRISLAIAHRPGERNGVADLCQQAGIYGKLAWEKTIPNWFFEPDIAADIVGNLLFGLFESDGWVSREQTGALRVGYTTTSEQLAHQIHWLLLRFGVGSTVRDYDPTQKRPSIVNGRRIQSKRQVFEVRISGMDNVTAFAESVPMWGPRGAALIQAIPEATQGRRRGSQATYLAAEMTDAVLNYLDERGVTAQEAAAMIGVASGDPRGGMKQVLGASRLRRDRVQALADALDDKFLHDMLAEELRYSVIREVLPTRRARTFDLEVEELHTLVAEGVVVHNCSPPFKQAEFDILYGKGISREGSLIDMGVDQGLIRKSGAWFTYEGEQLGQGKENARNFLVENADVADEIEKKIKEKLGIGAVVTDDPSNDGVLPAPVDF
Arbovirus anti repeat – further read-out of Arbovirus anti, marked with its call; inhibition, %; measured here: 10K subset replicate screen; many hits read low in the repeat;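 first of two repeat runs on a subset; 0% = infected and 100% = uninfected wells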
The depositor's hits bear a star; ? = inconclusive; / = no result given. Some of the compounds tested; count on the stated rates, not on these rows.

SMILES | Mtb betalactam | Arbovirus anti | YopH PTP inh | Mtb growth | RecA splice inh | others
CN(C)CCOC(=O)Cc1ccc(Cl)cc1 | -1.9 | 4.2 | -17.2 | -3.0% | -1.3
CCC(C)(C)C1CCc2c(sc(NC(=O)c3ccccc3C(=O)O)c2C#N)C1 (centres undefined) | -1.3 | / | / | -0.5% | 8.4
Nc1nnc(SCc2cc3c(cc2Cl)OCO3)s1 | 2.2 | 3.4 | 2.6 | 0.3% | -0.3
Cc1oc(CC(C)C)cc1C(=O)NCCCC(=O)O | -1.4 | -1.5 | / | -7.2% | 1.8
O=C(CSc1nnc(NC(=O)C2CCC2)s1)Nc1ccc(N2CCOCC2)cc1 | 9.8 | -10.1 | -29.9 | -4.9% | -5.1
Cc1ccc(C(C(=O)NCc2ccco2)N(C(=O)CNC(=O)c2cccs2)c2c(C)cc(C)cc2C)cc1 (centres undefined) | 5.9 | -26.2 | -4.6 | 1.2% | 0.5
COc1ccc(/C=N/NC(=O)c2ccc3c(c2)OCCO3)cc1[N+](=O)[O-] | 2.7 | 0.7 | -18.3 | -2.6% | 2.6
CC(NC(=O)c1ccc(NS(C)(=O)=O)cc1)c1ccccc1 (centres undefined) | -18.7 | 6.1 | 31.0 | -14.4% | -1.9
O=C(NCc1ccccn1)c1cnc2sccn2c1=O | -0.7 | 1.4 | -16.1 | -8.6% | /
Cc1ccc(C(=O)Nc2ncc3c(Cl)cccc3n2)cc1 | 0.5 | -16.2 | -25.8 | 7.4% | -9.4
CON/C=C(\C=Nc1ccc(F)cc1)c1ncc(C(F)(F)F)cc1Cl | 8.5 | 1.3 | -34.0 | -3.2% | -1.1
COc1cc2c(cc1C=O)OC(C)C2 (centres undefined) | -2.1 | 0.7 | / | -9.5% | -3.2
COc1ccnc2c1c(=O)n(Cc1c(F)cccc1Cl)c(=O)n2C | -7.6 | / | / | / | -2.1
c1ccc(OCc2nc3c4c(ncn3n2)-c2ccccc2CC42CCCC2)cc1 | -2.1 | -5.9 | -19.9 | 14.2% | -0.4
Cc1ccc(-c2ccc(SCC(=O)NCC3CCCO3)nn2)cc1 (centres undefined) | 1.0 | -4.0 | / | -8.1% | 1.9
Nc1c([N+](=O)[O-])cnnc1-c1ccccc1 | -3.8 | -7.7 | -12.4 | 5.3% | -6.0
O=C(CNC(=O)C1CCCCC1)Nc1cc(Cl)cc(Cl)c1 | -6.8 | -9.4 | -24.9 | -5.4% | 0.2
O=C(NCCCO)/C(=C/c1ccco1)NC(=O)c1ccc(Br)o1 | -1.9 | 2.2 | -7.2 | 1.0% | -2.3
c1cnn(-c2nc(N3CCOCC3)nc(N3CCOCC3)n2)c1 | 4.7 | 3.2 | -41.1 | -2.5% | -0.6 | Arbovirus anti repeat=-11.4
O=C1C(=O)c2ccccc2-c2ccccc21 | 99.9 | -34.0 | 100.4* | ? | 53.5*
COc1ccc(/C=N/NC(=O)C(=O)Nc2ccccn2)cc1OC | -6.7 | 0.3 | -38.1 | ? | -2.5
COC(=O)c1cc(NC(=O)CC2Oc3ccccc3NC2=O)cc(C(=O)OC)c1 (centres undefined) | 4.6 | / | / | / | -1.7
Cc1ccc(N(CC(=O)NC2CCCCC2)C(=O)CCCC(=O)Nc2ccccn2)cc1 | -2.2 | / | / | / | 1.9
Cc1c(NS(=O)(=O)c2ccc(N(C)C3CCCCC3)c([N+](=O)[O-])c2)c(=O)n(-c2ccccc2)n1C | 1.5 | -23.2 | -23.0 | 5.6% | -7.2
COc1cccc2sc(N(CCCN(C)C)C(=O)CCS(=O)(=O)c3ccccc3)nc12 | 1.5 | / | / | / | -2.0
Further entries:
SMILES | Mtb betalactam | Arbovirus anti | YopH PTP inh | Mtb growth | RecA splice inh | others
COc1ccc(CCCC(=O)N/N=C/c2cccc(OC)c2O)cc1C | -5.2 | -13.5 | -59.2 | 6.6% | -6.6
COc1cccc(CCC(=O)N(C)C2CCCN(Cc3ccccc3F)C2)c1 (centres undefined) | -4.4 | / | / | / | 0.3
Nc1nnc(SCc2c(F)cccc2Cl)s1 | -4.0 | / | / | -8.8% | /
CCC1CCc2c(sc(NC(=O)c3ccco3)c2C(N)=O)C1 (centres undefined) | 66.3 | -11.9 | -9.7 | 5.0% | 6.1
CCOC(=O)c1c(NC(=O)CSc2nc3c(c(=O)n(C)c(=O)n3C)n2C(C)C)sc(C)c1C | 0.8 | -2.5 | -28.3 | 1.2% | 1.4
CCc1nc(SCC(=O)Nc2ccc(N(C)C)cc2)c2ccccc2n1 | -9.9 | / | / | 0.7% | -4.1
COc1ccc2c(CC(=O)N3CCc4cc(OC)c(OC)cc4C3)coc2c1 | 7.3 | / | / | / | 0.7
COc1ccc(NC(=S)N(CCCN2CCOCC2)C(C)c2cc3cccc(OC)c3o2)cc1 (centres undefined) | 0.0 | 7.6 | / | 2.2% | -4.6
CSc1nc2ccc(NC(=O)NC(=O)c3c(F)cccc3F)cc2s1 | -1.2 | / | / | -2.8% | -1.7
O=C(O)CN1C(=O)/C(=C/c2ccc(SCc3ccccc3)o2)SC1=S | / | -6.5 | / | 4.9% | /
COc1cc(OC)c(OC)cc1/C=N/n1c(C)nc2ccccc2c1=O | 0.7 | / | / | / | 0.6
Cc1ccc(NC(=O)CCC(=O)N/N=C/c2ccc(O)cc2O)cc1 | -2.8 | / | / | / | -3.6
O=C(CNCc1ccccc1)NC1C2CC3CC(C2)CC1C3 (centres undefined) | -1.7 | / | / | / | -1.4
COC(=O)C1CCN(C(=O)COC(=O)c2ccc(OC)c(S(=O)(=O)N3CCCc4ccccc43)c2)CC1 | 2.1 | 1.3 | / | 0.5% | 1.2
Cc1ccccc1N1C(=O)c2ccccc2C1O (centres undefined) | 6.2 | / | / | / | 0.0
Cc1cccc(-c2nnc(NC(=O)c3cccs3)s2)c1 | 3.0 | 0.6 | -21.7 | 10.2% | -2.3
O=[N+]([O-])c1ccc(S(=O)(=O)c2ccccc2)nc1 | 100.6 | / | / | / | 15.9
COc1ccc(-c2nn(-c3ccccc3)cc2/C=C/C(=O)N2CCOCC2)cc1OC | 2.9 | -12.8 | / | 2.5% | 3.2
COc1ccc(Br)cc1-c1noc(-c2ccncc2)n1 | 4.2 | 0.5 | 2.3 | -3.2% | -0.9
Cc1cccc(-c2nc3c(c(SCC(=O)N4CCOCC4)n2)CCCC3)c1 | 20.5 | 1.1 | -27.2 | 2.1% | 1.6
O=C(O)c1cnc(-c2ccccc2)nc1Oc1ccc(Cl)cc1 | -4.4 | 3.0 | / | 6.2% | -0.5
COc1ccc2c(c1)NC1(O)c3ccccc3C(=O)C21O (centres undefined) | 2.8 | 5.5 | -49.3 | 0.5% | 2.3 | Arbovirus anti repeat=1.5
COc1ccc(N2CC(O)=C(c3nc(-c4ccc(Cl)cc4)cs3)C2=N)cc1 | -4.2 | 6.2 | / | 8.3% | 1.2
O=[N+]([O-])c1ccc2nc(SCc3cn4ccccc4n3)[nH]c2c1 | -1.6 | -9.8 | -27.1 | -7.2% | -2.6
C[C@H](NC(=O)OC(C)(C)C)c1nnc(SCC(=O)Nc2ccc(Br)cc2)o1 | 0.1 | 3.0 | -8.4 | -6.1% | -3.5

Pulled by compound from the entries so far, two records:
SMILES | Mtb betalactam | Arbovirus anti | YopH PTP inh | Mtb growth | RecA splice inh | others
COc1ccc(N2CC(O)=C(c3nc(-c4ccc(Cl)cc4)cs3)C2=N)cc1 | -4.2 | 6.2 | / | 8.3% | 1.2
O=C(O)c1cnc(-c2ccccc2)nc1Oc1ccc(Cl)cc1 | -4.4 | 3.0 | / | 6.2% | -0.5

(list continues)
SMILES | Mtb betalactam | Arbovirus anti | YopH PTP inh | Mtb growth | RecA splice inh | others
CS(=O)(=O)Nc1ccc(-c2ccc(/C=C3\SC(N)=NC3=O)o2)cc1 | 5.9 | / | / | / | -41.3
CCO[C@H]1OC(C(=O)NC2CC2)=C[C@@H](C)[C@@H]1CCCO | -6.3 | 3.4 | / | 8.8% | 1.9
C=CCn1cc(C(=O)OC)c(=O)c2cc(S(=O)(=O)N3CCCCCC3)ccc21 | 0.9 | 0.7 | / | 6.4% | -3.4
CCOC(=O)[C@H]1[C@H]2COc3cc(OC)ccc3[C@@H]2N2C(=O)N(c3cccc(Cl)c3)C(=O)[C@@]12C | 3.0 | / | / | / | 4.7
C=CCNC(=S)Nc1sc2c(c1C(=O)OCC)CCN(C(=O)OCC)C2 | -2.8 | 2.5 | -23.9 | -2.1% | -2.5
O=C1CC(=O)C(n2cncn2)C(c2ccc(Cl)cc2Cl)C1 (centres undefined) | 6.5 | 3.1 | -8.8 | -3.7% | 4.3
Cc1cccc(C)c1NC(=O)CSc1nc(N2CCOCC2)nc(N2CCOCC2)n1 | -5.8 | / | / | / | -1.7
O=C(CN1CCN(Cc2ccccc2)CC1)Nc1cccc(S(=O)(=O)N2CCCCCC2)c1 | 5.3 | -2.5 | / | 6.7% | -0.1
[N-]=[N+]=NC1c2ccccc2C(=O)N1Cc1ccccc1 (centres undefined) | -0.1 | / | / | / | -1.7
Cc1cccc(-n2c(C)cc(/C=N/O)c2C)c1 | 5.1 | -1.1 | -29.2 | 7.6% | -1.7
Cc1ccccc1SCC(=O)NC1CCOC1=O (centres undefined) | -2.2 | 0.9 | -23.1 | -3.6% | 1.1
O=C(CN1CCCCC1)NNC(=O)c1ccc([N+](=O)[O-])cc1 | 4.2 | / | / | / | 1.1
CCCC(C)C(=O)Nc1ccc(C(N)=O)cc1 (centres undefined) | 4.6 | 4.3 | -15.4 | -5.9% | /
O=C(Nc1ccc(F)cc1)C(c1ccccc1)N1CCN(S(=O)(=O)c2ccccc2)CC1 (centres undefined) | -8.6 | -6.5 | -45.0 | -5.3% | -2.0
COC(=O)C(NC=O)C(O)(Cc1ccccc1)C(F)(F)F (centres undefined) | -0.8 | -1.7 | -48.6 | -2.4% | /
Cc1cccc([C@@H]2[C@@H]3C(=O)N(Cc4ccccc4)C(=O)[C@@H]3[C@]3(Cc4ccccc4)C(=O)N(c4ccccc4)C(=O)N23)c1 | -7.0 | / | / | / | 2.9
CCCCc1ccc(S(=O)(=O)NNC(=S)NCc2ccco2)cc1 | 3.6 | 4.0 | -18.2 | 0.1% | 2.5
C/C(=N\N=C(/N)SC1CC(=O)N(c2ccccc2)C1=O)c1cccs1 (centres undefined) | 10.6 | 17.4 | -32.7 | 3.4% | -0.6
COC(=O)c1ccc(OC(=O)C2CC(=O)N(c3cccc(C)c3)C2)cc1 (centres undefined) | 3.9 | 9.0 | -23.4 | -4.9% | 25.7
Nc1ccn(C2CC(O)C(CO)O2)c(=O)n1 (centres undefined) | -6.2 | / | / | / | -2.3
COC(=O)C1(C)NC(c2ccco2)C2C(=O)N(c3ccc(C)cc3)C(=O)C21 (centres undefined) | -3.8 | 3.5 | 12.0 | -4.9% | 3.1

Structures from the list above with two or more sulfur atoms, in the order listed:
SMILES | Mtb betalactam | Arbovirus anti | YopH PTP inh | Mtb growth | RecA splice inh | others
Nc1nnc(SCc2cc3c(cc2Cl)OCO3)s1 | 2.2 | 3.4 | 2.6 | 0.3% | -0.3
O=C(CSc1nnc(NC(=O)C2CCC2)s1)Nc1ccc(N2CCOCC2)cc1 | 9.8 | -10.1 | -29.9 | -4.9% | -5.1
COc1cccc2sc(N(CCCN(C)C)C(=O)CCS(=O)(=O)c3ccccc3)nc12 | 1.5 | / | / | / | -2.0
Nc1nnc(SCc2c(F)cccc2Cl)s1 | -4.0 | / | / | -8.8% | /
CCOC(=O)c1c(NC(=O)CSc2nc3c(c(=O)n(C)c(=O)n3C)n2C(C)C)sc(C)c1C | 0.8 | -2.5 | -28.3 | 1.2% | 1.4
CSc1nc2ccc(NC(=O)NC(=O)c3c(F)cccc3F)cc2s1 | -1.2 | / | / | -2.8% | -1.7
O=C(O)CN1C(=O)/C(=C/c2ccc(SCc3ccccc3)o2)SC1=S | / | -6.5 | / | 4.9% | /
Cc1cccc(-c2nnc(NC(=O)c3cccs3)s2)c1 | 3.0 | 0.6 | -21.7 | 10.2% | -2.3
CS(=O)(=O)Nc1ccc(-c2ccc(/C=C3\SC(N)=NC3=O)o2)cc1 | 5.9 | / | / | / | -41.3
C=CCNC(=S)Nc1sc2c(c1C(=O)OCC)CCN(C(=O)OCC)C2 | -2.8 | 2.5 | -23.9 | -2.1% | -2.5
CCCCc1ccc(S(=O)(=O)NNC(=S)NCc2ccco2)cc1 | 3.6 | 4.0 | -18.2 | 0.1% | 2.5
C/C(=N\N=C(/N)SC1CC(=O)N(c2ccccc2)C1=O)c1cccs1 (centres undefined) | 10.6 | 17.4 | -32.7 | 3.4% | -0.6
